High-throughput results deposited in PubChem BioAssay by ICCB-Longwood Screening Facility, Harvard Medical School.
Sa helicase inh: blocks Staphylococcus aureus DNA helicase | AID 485395 | inhibition, %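 (tested at about 80 µM)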 | purified S. aureus helicase, fluorescence unwinding assay; about half of the hits fall short of the stated cut | hit rate 0.05% among 120,000;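 active means both duplicates at 50% or more, or one of them with a favoured structure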;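 further: 0% = mean of negative control wells and 100% = mean of positive control wells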
MgrA DNA FP: alters Staphylococcus aureus MgrA binding to DNA | inhibition, %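 (about 10 µg/mL by stock and volumes)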 | hit rate 0.13% among 84,000 | AID 602314 | fluorescence polarization;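 active means above 50% in either of two replicates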;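 further: 0% = protein plus DNA without compound and 100% = DNA alone without protein; higher means less MgrA bound to DNA so lower polarization; one replicate is shown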
Numbers without * were called inactive; x = no result given; & = joins results of further samples.

Sa helicase inh | MgrA DNA FP | canonical_smiles
-1 | x | COc1ccc(-c2nc(SCC(=O)N3CCCC3)c3c(=O)n(C)c(=O)n(C)c3n2)cc1
15 | x | CC1Sc2nnc(-c3ccc(OC(F)F)cc3)n2N=C1c1ccc(NS(C)(=O)=O)cc1 (stereo unspecified)
10 | -27 | O=C(OC(C(=O)NC1CCCC1)c1cccnc1)C1=Cc2ccccc2OC1 (stereo unspecified)
19 | -0.6 | CCN(Cc1ccccc1)C(=O)c1cc2sccc2n1Cc1ccccc1
24 | x | COCc1c(C(=O)NCc2ccc(OC)cc2)oc2ccccc12
x | -4.5 | O=C(Nc1ccccc1)c1csc(-c2ccc3c(c2)CCO3)n1
x | 13 | O=C1NNC(c2ccccc2)=N/C1=C\c1ccccc1
8 | 0.0 | Cc1ccc(C(=O)CSc2nc(C)cc(SCC#N)n2)cc1
-15 | x | CCOc1cccc(/C=N/n2c(-c3ccc(Cl)cc3)n[nH]c2=S)c1O
2 | x | O=C(OCc1cc(=O)n2cc(Br)ccc2n1)c1cnccn1
-2 | x | CCCc1cc(=O)[nH]c(SC(C)C(=O)NC(=O)NC)n1 (stereo unspecified)
17 | x | CS/C(=N\S(=O)(=O)c1cccs1)Nc1ccc(N2CCOCC2)cc1
16 | x | CC(c1ccco1)N(C(=O)c1ccc(Cl)s1)c1ccccn1 (stereo unspecified)
21 | x | N#Cc1c2c(c(N3CCN(CCO)CC3)n3c1nc1ccccc13)CCC2
-8 | -1.4 | CN(C(=O)COC(=O)c1ccc2ccccc2n1)C1CCCCC1
-9 | 2.4 | O=C(Cc1ccccc1F)Nc1cccc(-c2nn[nH]n2)c1
14 | 5.0 | Cc1ccc2nc(NC(=O)CSc3nnc(Cc4ccccc4)o3)sc2c1
4 | -1.8 | CCC(C)Cn1c(CC(C)(C)C)nc2ccccc21 (stereo unspecified)
-9 | x | CC(=O)NC12CC3CC(C1)CC(C(=O)NCC(c1ccco1)N(C)C)(C3)C2 (stereo unspecified)
x | 1.4 | Cc1cc(C)c(CN)cc1CN

Other results follow.
Sa helicase inh | MgrA DNA FP | canonical_smiles
4 | x | CS(=O)(=O)N(c1ccc(F)cc1)C1C=CS(=O)(=O)C1 (stereo unspecified)
-4 | -5.2 | CC(C)(C)c1oc(C(=O)Nc2ccc3c(c2)oc2ccccc23)cc1COCC(F)(F)F
-2 | -3.1 | NC(=O)N1CCNCC1
8 | -3.4 | CCC(C)(C)N1CC(=O)N(Cc2ccccc2)C(c2ccc(OC)cc2)C1=O (stereo unspecified)
13 | -2.9 | CCCn1c(CCC(=O)Nc2ccccc2)nc2cccnc21
16 | 0.2 | Cc1nc2ccccc2c2oc(C(=O)NCCN3CCN(C)CC3)cc12
-11 | -1.6 | Cc1cc(C)n2cc(CSCc3ccccc3)nc2n1
-10 | -0.3 | O=C(NCc1ccco1)c1cc(=O)c2ccccc2o1
-4 | x | Cc1cc(=O)n(CC(=O)Nc2ccc(F)cc2)c(SCC(N)=O)c1C#N
25 | x | CCn1c(SCC(=O)NCc2ccc(C)cc2)nc2c(c1=O)SCC2
-2 | -0.5 | CCCNS(=O)(=O)c1ccc(OCC(=O)O)c(Cl)c1
x | -6.1 | Cc1ccc2oc(=O)n(CCC(=O)O)c2c1
-4 | -0.2 | CCc1cccc(OCC(=O)Nc2c[nH]c(=O)[nH]c2=O)c1
-2 | -1.2 | Nc1ccc(S(=O)(=O)N2CCCC(C(=O)O)C2)cc1 (stereo unspecified)
-5 | 2.2 | Cn1c(=NC(=O)CCSc2ccccc2)sc2cc(Cl)ccc21
5 | x | COc1ccccc1-n1c(-c2ccccc2)cnc1SCC#N
9 | -0.7 | COc1ccc(Cn2c(CCC(=O)NCc3ccccc3)nc3cccnc32)cc1
x | -0.9 | C(=NCc1ccco1)c1ccc2c(c1)OCO2
x | 2.7 | CCOC(=O)NN=C1CCCC1
-1 | 0.2 | N#C/C(=C\c1ccco1)C(=O)Nn1cnnc1

(listing goes on)
Sa helicase inh | MgrA DNA FP | canonical_smiles
14 | 0.7 | COc1ccc(-c2c(C)nn3c(N4CCc5ccccc54)cc(C)nc23)cc1OC
-11 | x | CC(COc1ccc(C(C)C)cc1)NC(=O)c1ccco1 (stereo unspecified)
x | -0.6 | S=C(NCCc1ccccc1)N/N=C/c1c(-c2ccc(Cl)cc2)[nH]c2ccccc12
6 | 0.3 | O=C(COC(=O)c1ccncc1)c1ccc2ccccc2c1
x | -0.3 | O=S(=O)(Cc1cccc(C(F)(F)F)c1)c1ccc(Cl)cc1
x | 4.4 | Cc1cc(C(=O)n2ccc(-c3cccs3)n2)c(C)o1
x | 0.0 | CSC(=NS(=O)(=O)c1ccccc1)SC
5 | 0.3 | CCS(=O)(=O)C(=C(Nc1ccccc1)Nc1ccccc1)S(=O)(=O)CC
0 | -2.1 | CCc1nn(CC(=O)NC2CC2)c(=O)c2cc3occc3n12
13 | x | CC1CCCCN1C(=O)CSCC(=O)Nc1nc(-c2ccc(Cl)s2)cs1 (stereo unspecified)
-9 | 1.2 | CCOc1ccc(/C=C(\C(=O)N2CCCC2)n2ccccc2=O)cc1
-28 | x | CCCc1cc(=O)n2[nH]c(C(F)(F)F)nc2n1
0 | x | COc1ccc(OC)c(NC(=S)NCCN2CCOCC2)c1
7 | -3.5 | COc1ccc(N2CCN(CCCNC(=O)C3CCCN(S(=O)(=O)c4cnc[nH]4)C3)CC2)cc1 (stereo unspecified)
8 | 2.5 | CCOC(=O)c1c(C)n(OCc2ccccc2)c2ccc3nonc3c12
11 | 0.0 | CC(Cc1ccccc1)N=C1NS(=O)(=O)c2ccccc21 (stereo unspecified)
-18 | x | Cc1ccc2nc(SCc3ccccc3)[nH]c2c1
21 | x | Cc1ccc2c(c1)C(c1ccccc1)N(C(=O)C(C)C)CC(=O)N2 (stereo unspecified)
16 | x | COCCn1c(=NC(=O)c2ccc(C(=O)OC)cc2)sc2cc(C)ccc21
-8 | 0.3 | COC(CNC(=O)c1ccc(CNC(=O)c2cccc(Br)c2)cc1)OC

(listing goes on)
Sa helicase inh | MgrA DNA FP | canonical_smiles
x | -0.2 | COC(=O)c1cc2cc(Br)ccc2c(Br)c1OC
-44 | x | COCc1nc2ccccc2n1Cc1ccc(F)cc1
20 | 6.7 | O=C(COc1ccccc1)Nc1cccc(-c2nn[nH]n2)c1
x | -1.9 | Cc1ccc(C2=NN3C(C2)c2ccccc2OC3c2ccc(OC(=O)c3ccccc3)cc2)cc1 (stereo unspecified)
14 | x | NC(=O)c1nn(-c2ccc(Cl)cc2)c(=O)c2ccccc12
12 | -4.0 | CC(=O)OC(COCc1ccccc1)Cn1cnc2ccccc21 (stereo unspecified)
7 | x | Cc1ccc(NC(=O)CN(C)C(=O)Nc2ccc(C)cc2)cc1
14 | x | c1ccc(C2CCCCS2)cc1 (stereo unspecified)
18 | -2.6 | CN1C2=C(C(=O)CCC2)C(c2ccccc2)C2=C1CCCC2=O
x | -2.2 | CC(=NCc1ccc2c(c1)OCO2)c1ccccc1O
9 | x | CC1=NN(c2ccccc2)C(=O)/C1=N\OCC(=O)N1CCCc2ccccc21
15 | x | COC(=O)C1(C(=O)OC)C(c2ccc(Cl)cc2)C1(C#N)C#N (stereo unspecified)
2 | -0.9 | O=C1Nc2ccccc2S/C1=C\c1cccc(Cl)c1
8 | x | Nc1nc(-c2sc3nc4c(cc3c2N)CCC4)nc(N2CCOCC2)n1
x | -0.4 | N#Cc1cn(C2CC2)c(=O)n(Cc2ccccc2)c1=O
-5 | x | CCn1c(N)c(C(=O)COC(=O)c2ccc(S(=O)(=O)C(F)F)cc2)c(=O)[nH]c1=O
5 | 2.2 | O=C(O)C1C(c2ccccc2)C(C(=O)O)C1c1ccccc1 (stereo unspecified)
8 | x | O=C(CSc1nc(=O)n(CCN2CCOCC2)c2c1CCC2)NCc1ccccc1
x | -1.9 | CCOC(=O)c1ccc(NC(=O)c2cc(-c3ccccc3)nc3ccccc23)cc1
-5 | x | O=C1CC(c2cccc(Br)c2)NC(=O)N1 (stereo unspecified)

Ordered by formula weight (smallest number first): part of the list above
Sa helicase inh | MgrA DNA FP | canonical_smiles
-5 | x | O=C1CC(c2cccc(Br)c2)NC(=O)N1 (stereo unspecified)
2 | -0.9 | O=C1Nc2ccccc2S/C1=C\c1cccc(Cl)c1
5 | 2.2 | O=C(O)C1C(c2ccccc2)C(C(=O)O)C1c1ccccc1 (stereo unspecified)

The listing continues.
Sa helicase inh | MgrA DNA FP | canonical_smiles
2 | x | COc1ccc2cc(C#N)c(Nc3cccc(F)c3)nc2c1
12 | x | Cc1csc(=S)n1-c1ccccc1
9 | -3.9 | O=c1c(Cl)c(NCCO)ncn1-c1ccccc1
-24 | x | CCN(CC)C(=O)CSc1cn(CC(=O)N2CCCC2)c2ccccc12
-25 | x | CCC(C)(C)NC(=O)/C=C/c1cnc2ccccc2n1
7 | x | O=C(NCCO)c1ccc(/C=N/O)nc1
-13 | x | O=C(CCNC(=O)c1ccccc1Cl)Nc1ccc2c(c1)OCCO2
-5 | x | O=C(Nc1cccc(Cl)c1)c1cccc(NC(=O)C(F)(F)F)c1
5 | -3.4 | O=C1CCCc2c1cc(C(=O)O)c(=O)n2-c1ccccc1
14 | 0.4 | CC(SC(=S)N1CCCC1)C(=O)O (stereo unspecified)
x | -0.3 | CC(=O)Nc1ccc(S(=O)(=O)N2CCCC2)cc1Cl
-1 | -0.6 | CC(C)c1ccccc1NC(=O)c1cc2ccccc2o1
-9 | -0.3 | CN(C)CCCNC1=CC(=O)OC12CCCCC2
0 | 0.6 | COc1ccc(/C=N/C2=NNC(c3ccccc3)=CS2)cc1
-14 | -0.3 | Cc1nn(-c2nc3ccccc3[nH]2)c(N)c1-c1ccc(Cl)cc1
x | 15 | CCn1c2ccccc2c2nc3cc4ccccc4cc3nc21
x | -4.6 | Cc1cc(OCC(=O)O)cc2c1C(=O)CC(C)(C)O2
-11 | -0.2 | CC(OC(=O)/C=C/c1ccco1)C(=O)Nc1cccc(Cl)c1 (stereo unspecified)
x | 2.7 | O=C1C2C3C=CC(C2C(=O)N1c1cccc(O)c1)C1C2C(=O)N(c4cccc(O)c4)C(=O)C2C31 (stereo unspecified)
-11 | -3.3 | COc1ccc(NC(C)C(=O)Nc2nccs2)cc1 (stereo unspecified)

Going on with the list.
Sa helicase inh | MgrA DNA FP | canonical_smiles
0 | x | CCOc1ccccc1NC(=O)c1oc2ccccc2c1NC(=O)C1CCCO1 (stereo unspecified)
10 | x | COC(=O)C(O)(c1c(-c2ccccc2)nc2sccn12)C(F)(F)F (stereo unspecified)
13 | x | Cc1ccc(CNC(=O)C2CSC(c3cccs3)=N2)cc1 (stereo unspecified)
-21 | x | CCN(CC(=O)Nc1cccc(F)c1)CC(=O)Nc1ccc2c(c1)OCCO2
x | -0.4 | CCOC(=O)c1ccsc1NC(=O)c1ccc(C(F)(F)F)cc1
4 | x | O=c1[nH]cc(N2CCCCC2)c(=O)[nH]1
-14 | 0.2 | Cc1cc(Br)cc2c1N(C)C(=O)/C2=C1\SC(=Nc2ccc(F)cc2)NC1=O
14 | -1.2 | COc1ccc2cc(Br)ccc2c1CC(=O)NN1CCN(C)CC1
-3 | x | O=C(CNc1n[nH]c(=O)[nH]c1=O)N/N=C/c1ccccc1
x | -0.5 | CN(CCC#N)S(=O)(=O)c1cccc2nsnc12
-7 | x | NNC(=O)c1cccc(NN)n1
4 | 0.3 | CCc1ccc(NS(=O)(=O)c2ccc3c(c2)OCCN3C(C)=O)cc1
13 | x | O=C(Cn1c(=O)oc2cc(S(=O)(=O)NCc3ccccc3)ccc21)NC1CCCC1
3 | 1.0 | CC(C)(C)OC(=O)N1CCN(S(=O)(=O)c2ccc(-n3cnnn3)cc2)CC1
11 | -5.7 | Cn1c(=O)n(C)c2cc(S(=O)(=O)N3CCCCC3)ccc21
x | -0.9 | C1CCC(NC(=NC2C3CC4CC(C3)CC2C4)N2CCOCC2)CC1 (stereo unspecified)
-9 | x | Cc1ccc(NC(=O)COC(=O)C23CCC(=O)N2c2ccccc2C(=O)N3C2CC2)cc1C (stereo unspecified)
3 | -2.0 | C=CCOc1cc2c(cc1C(C)c1ccc(OC)cc1)OCO2 (stereo unspecified)
12 | -1.1 | CC1CCc2nc3ccc(S(=O)(=O)N4CCC(C(=O)N5CCCC5)CC4)cc3c(C(=O)O)c2C1 (stereo unspecified)
x | 0.7 | N/C(=N\S(=O)(=O)c1cc(Cl)c(Oc2ccc([N+](=O)[O-])cc2)c(Cl)c1)c1ccc(Cl)cc1

No new results follow: entries from further up.
Sa helicase inh | MgrA DNA FP | canonical_smiles
3 | 1.0 | CC(C)(C)OC(=O)N1CCN(S(=O)(=O)c2ccc(-n3cnnn3)cc2)CC1
11 | -5.7 | Cn1c(=O)n(C)c2cc(S(=O)(=O)N3CCCCC3)ccc21

Looked up one by one from the entries so far, seven records:
Sa helicase inh | MgrA DNA FP | canonical_smiles
13 | x | O=C(Cn1c(=O)oc2cc(S(=O)(=O)NCc3ccccc3)ccc21)NC1CCCC1
-3 | x | O=C(CNc1n[nH]c(=O)[nH]c1=O)N/N=C/c1ccccc1
-14 | 0.2 | Cc1cc(Br)cc2c1N(C)C(=O)/C2=C1\SC(=Nc2ccc(F)cc2)NC1=O
11 | -5.7 | Cn1c(=O)n(C)c2cc(S(=O)(=O)N3CCCCC3)ccc21
-21 | x | CCN(CC(=O)Nc1cccc(F)c1)CC(=O)Nc1ccc2c(c1)OCCO2
x | 0.7 | N/C(=N\S(=O)(=O)c1cc(Cl)c(Oc2ccc([N+](=O)[O-])cc2)c(Cl)c1)c1ccc(Cl)cc1
x | -0.5 | CN(CCC#N)S(=O)(=O)c1cccc2nsnc12

Going on with the list.
Sa helicase inh | MgrA DNA FP | canonical_smiles
8 | 4.4 | COc1ccc(N=Cc2ccc3ncccc3c2)cc1
x | 2.7&-3.1 | Cc1ccc(-c2csc(-c3ccncc3)n2)cc1
10 | x | Cc1cc(C(=O)Oc2ccc(Cl)cc2)no1
7 | 1.6 | CCN(C(=O)Cc1ccc(F)cc1)C1CCCCC1
7 | 0.7 | Nc1nonc1-c1nc2ccccc2n1CC(=O)Nc1ccccc1

Some of the compounds tested (hit frequency here may not be typical).
